Assay outcomes from PubChem.
RecA intein inh: Mtb RecA intein splicing inhibitors, primary screen, biochemical, fluorescence, HTS. 0.75% of 290,000 active. inhibition, %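 (about 9 µM by stock and volumes)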. cell-free RecA intein splicing. AID 2221, 2009; in the data active = inhibition above about 30%; inconclusive = no clear call, values can overlap the other calls;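 also: 0% = vehicle wells and 100% = reference inhibitor control wells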
Target sequence (P9WHJ3 whole entry, looked up): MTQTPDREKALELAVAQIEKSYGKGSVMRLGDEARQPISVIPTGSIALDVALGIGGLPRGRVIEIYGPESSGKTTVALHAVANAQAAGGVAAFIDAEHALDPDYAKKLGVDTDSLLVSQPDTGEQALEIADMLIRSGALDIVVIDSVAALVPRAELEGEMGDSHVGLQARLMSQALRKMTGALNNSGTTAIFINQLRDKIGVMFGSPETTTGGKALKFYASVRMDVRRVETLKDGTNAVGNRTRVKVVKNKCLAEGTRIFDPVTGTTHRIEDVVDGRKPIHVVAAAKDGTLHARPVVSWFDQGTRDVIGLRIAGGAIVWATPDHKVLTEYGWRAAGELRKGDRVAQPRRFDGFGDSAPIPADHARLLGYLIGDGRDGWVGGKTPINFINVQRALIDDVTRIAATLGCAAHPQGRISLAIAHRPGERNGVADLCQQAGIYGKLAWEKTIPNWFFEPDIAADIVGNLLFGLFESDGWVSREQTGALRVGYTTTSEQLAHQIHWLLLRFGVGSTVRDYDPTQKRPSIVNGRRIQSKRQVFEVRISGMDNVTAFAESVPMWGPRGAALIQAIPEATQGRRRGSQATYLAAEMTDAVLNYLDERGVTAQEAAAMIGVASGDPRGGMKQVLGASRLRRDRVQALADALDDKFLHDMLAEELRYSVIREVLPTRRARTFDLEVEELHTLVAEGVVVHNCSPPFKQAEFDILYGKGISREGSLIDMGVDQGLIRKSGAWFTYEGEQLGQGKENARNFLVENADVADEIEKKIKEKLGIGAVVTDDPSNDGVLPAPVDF
YopH PTP inh: YopH tyrosine phosphatase inhibitors, primary screen, biochemical, fluorescence Ex485/Em525. YopH tyrosine phosphatase [Yersinia enterocolitica]. inhibition, %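 (about 10 µM by stock and volumes)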. 0.16% of 140,000 active. AID 898, 2007;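 active = inhibition of 50% or more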;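 also: controls were vehicle for no effect and minimum signal wells for full effect; inactives centre near -20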
Arbovirus inh: antivirals against arbovirus infection, primary screen, cell-based, full library, 10K replicate subset; AID 1251, 2008; 0.37% of 200,000 active; inhibition, % at 10 µM; arbovirus infection cell-based antiviral screen;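 active = inhibition from about 30%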;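 also: bluetongue infection of BSR cells; cell survival read as ATP light after 72 h; 0% = infected wells without compound and 100% = uninfected wells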
Mtb betalactam: beta-lactam sensitization of Mtb H37Rv, H37Rv. 0.27% of 330,000 active. AID 434955, 2010. inhibition, % at 25 µM. M. tuberculosis H37Rv growth with meropenem, percent inhibition; hits of this screen are not shown here;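 active = about 74% or more and at least 40 points above the plate without the antibiotic, then above 30% in a dose series; inconclusive = first-round hits that could not be retested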;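 also: growth measured after seven days incubation then overnight dye step; 0% = bacteria only wells and 100% = bacteria with antibiotic; twin plates without the antibiotic show which effects depend on it; some results filed as inactive read as strong as hits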
Mtb growth: M. tuberculosis H37Rv growth inhibitors, H37Rv strain (AID 1626); M. tuberculosis H37Rv growth inhibition; higher % means a stronger effect; inhibition, % at 10 µM, or IC50 in µM where a hit was titrated; 0.95% of 220,000 active;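 active = confirmed in a dose series; inconclusive = inhibition above 80% but not taken into the dose series; inactive = below 80% or under 30% at every dose of the series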;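 also: bacteria incubated seven days before Alamar blue readout; 0% = bacteria only wells and 100% = bacteria with antibiotic wells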
Arbovirus inh repeat: further read-out of Arbovirus inh, marked with its call; inhibition, %; measured here: 10K subset replicate screen; many hits read low in the repeat;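 first of two repeat runs on a subset; 0% = infected and 100% = uninfected wells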
* marks the source's active call; other numbers are inactive results; ? = inconclusive; / = not tested or not shown. An excerpt. The share of hits here may be higher or lower than overall.

SMILES | RecA intein inh | YopH PTP inh | Arbovirus inh | Mtb betalactam | Mtb growth | others
Cc1cc(C)c2nc(SCC(=O)N(C)C3CCS(=O)(=O)C3)cc(C)c2c1 (stereo not given) | 3.2 | / | -6 | 0 | -2%
Cc1cc(C)cc(NC(=O)CSc2ccc(-c3cccs3)nn2)c1 | -3.8 | -19 | 11 | 39 | 67%
COC(=O)c1[nH]c2ccccc2c1NC(=O)CNC1CCCCC1 | 1.4 | -33 | 23 | -5 | -3%
CCN(CC)CCCN1C(=O)CSC1c1ccc([N+](=O)[O-])cc1 (stereo not given) | 2.3 | / | 3 | -3 | -8%
Cc1ccc(C(C(=O)NC2CCCCC2)N2CCN(C(=O)c3ccco3)CC2)cc1 (stereo not given) | 0.4 | -1 | 1 | 3 | -1%
Cc1cccc(NS(=O)(=O)c2cc3c4c(c2)CCC(=O)N4CCC3)c1 | 1.2 | / | / | -8 | /
OCCNc1nc2ccccc2n1CC(O)c1ccccc1 (stereo not given) | 0.3 | / | 12 | -4 | -9%
Cc1ccccc1NC(=O)NC1(C(=O)NCC2CCCO2)CCCCC1 (stereo not given) | 4.0 | / | / | -6 | /
O=S(=O)(Nc1nc(SCc2ccc(Cl)cc2)n[nH]1)c1ccc(F)cc1 | 6.7 | / | / | 0 | 10%
Cc1ccc(C(=O)NNC(=O)c2ccncc2)cc1C | -0.5 | / | / | -4 | /
O=C(Nc1cccc2ccccc12)NC1CCS(=O)(=O)C1 (stereo not given) | 1.6 | / | 4 | 7 | 2%
CC(C)CCN1CCN(C/C=C/c2ccco2)CC1CCO (stereo not given) | 3.1 | / | 1 | 5 | -1%
Cc1ccc(C(=O)N2CCC(n3nccc3NC(=O)Nc3cccc(F)c3)CC2)cn1 | 0.7 | / | / | -9 | /
O=C1Nc2ccc(Br)cc2C12OCCO2 | 0.2 | / | / | -3 | /
COCCn1cc(C(=O)NCCCOC(C)C)c2c3ccccc3n(C)c2c1=O | -1.3 | / | / | -1 | /
CC(C)N(Cc1ccccc1)C(=O)C1CCN(c2ncnc3c2nc2n3CCCCC2)CC1 | 1.3 | / | / | 6 | /
COC(=O)/C=C1\C(=O)N(c2nc3ccccc3s2)C(=S)N1c1ccc(F)cc1 | -4.0 | -25 | 2 | 5 | 3%
Cc1ccc(C)c(CS(=O)(=O)c2cn(CC(=O)N3CCCCC3)c3ccccc23)c1 | -3.2 | -8 | 17 | -3 | -9%
Cc1cc(C)cc(NC(=O)Cn2nnc(C(=O)NCc3ccc4c(c3)OCO4)c2N)c1 | 0.8 | / | / | -1 | /
COc1ccc(CCCNC(=O)C2CCC(=O)N(CC3CCCCC3)C2)cc1 (stereo not given) | 1.1 | / | / | ? | /
C=CCN1C(=O)C2C(C(=O)NC3CCCCC3)C3C=CC2(O3)C1C(=O)NC1CCCC1 (stereo not given) | -4.9 | -33 | 7 | -5 | -2%
COc1ccc(NC(=O)CO/N=C(\C)c2cccs2)cc1 | -0.3 | / | -1 | 3 | -1%
CCCC(=O)Nc1nnc(SCC(=O)NCc2ccco2)s1 | -1.6 | -21 | -3 | 1 | 4%
C#CCOc1ccc(/C=C2/C(=O)ON=C2C)cc1Br | 1.5 | / | / | 2 | /

Entries shown so far that have an aryl methoxy group:
SMILES | RecA intein inh | YopH PTP inh | Arbovirus inh | Mtb betalactam | Mtb growth | others
COc1ccc(CCCNC(=O)C2CCC(=O)N(CC3CCCCC3)C2)cc1 (stereo not given) | 1.1 | / | / | ? | /
COc1ccc(NC(=O)CO/N=C(\C)c2cccs2)cc1 | -0.3 | / | -1 | 3 | -1%

Next structures.
SMILES | RecA intein inh | YopH PTP inh | Arbovirus inh | Mtb betalactam | Mtb growth | others
CCC(/C=N/NC(=O)C(N)=O)CC | -3.2 | -28 | -2 | 2 | -3%
CC(C)OCCCNC(=O)CCc1nc(-c2ccccc2)no1 | / | -43 | 5 | -6 | -5%
O=c1[nH]c(N/N=C/c2ccc(O)cc2)nc2ccccc12 | -4.4 | -4 | -11 | 0 | 4%
Cc1cc(C)nc(SCc2nnc(SCC(=O)Nc3nccs3)n2C)n1 | / | -22 | 0 | / | 3%
Cc1cc(C)n(-c2cccc(Cl)c2)c(=O)c1C#N | -0.1 | -6 | -5 | 1 | -10%
C=CCNC(=O)c1ccc2c(c1)N(CC)C(=O)c1ccccc1S2 | 1.5 | / | / | -3 | /
CC(C)CCN1CCN(Cc2ccon2)CC1CCO (stereo not given) | -2.5 | / | 4 | -12 | 4%
N#C/C(=C\c1ccc(N2CCOCC2)o1)c1nc2ccccc2[nH]1 | -19 | -4 | -16 | 3 | 4%
COc1cc(OC)cc(C(=O)NNC(=O)c2cc3ccccc3cc2O)c1 | -6.9 | / | / | 4 | /
CCc1nc2oc3ccc(C)cc3c(=O)c2cc1C(=O)OC | 0.0 | / | / | 9 | /
CC(C)(C)C1CCC(C(=O)Nc2ccccc2)CC1 (stereo not given) | 2.1 | -13 | 4 | 3 | -2%
O=C(N/N=C/c1cccc([N+](=O)[O-])c1)c1cccs1 | 1.4 | 9 | -1 | 6 | 5%
N#Cc1c(-c2ccc(Cl)cc2)cc(-c2ccccc2)nc1SCC(=O)O | 7.9 | / | / | 0 | /
COc1ccc(S(=O)(=O)NC(C)C(=O)NCc2ccncc2)cc1C (stereo not given) | 1.0 | / | / | 0 | /
CC1=C(C(=O)N2CCOCC2)C(c2cccs2)NC(=O)N1 (stereo not given) | 1.9 | -35 | 2 | 4 | -4% | Arbovirus inh repeat=1
CCCCN(CC)CCNC(=O)c1cc2c(=O)[nH]c3ccccc3c2s1 | 0.0 | / | / | -3 | /
CCOC(=O)NN1C(=O)c2ccccc2NC1c1ccc(OC)cc1 (stereo not given) | -11 | 2 | -7 | 5 | 3%
COc1cc(/C=N/O)ccc1Oc1ccc([N+](=O)[O-])cc1[N+](=O)[O-] | 11 | / | -5 | -4 | 8%
COc1ccc(C2C(C(N)=O)=C(C)Nc3nc(CCCO)nn32)cc1OC (stereo not given) | -0.7 | / | / | -7 | /
Cc1ccccc1NC(=O)c1ccc(NC(=O)c2ccco2)cc1 | -3.2 | 30 | -2 | 29 | 3%
O=C(NCc1cccnc1)C(=O)c1c[nH]c2ccccc12 | 3.2 | / | / | -3 | /
CCCNC(=O)c1ccc(COc2ccc(C)cc2)o1 | -2.0 | / | / | -14 | /
CC(CN1CCCCC1)OC(=O)c1ccco1 (stereo not given) | -0.4 | / | / | -1 | /
CC(C)c1ccccc1NC(=O)COc1ccc2c(=O)c(Oc3ccc4ccccc4c3)coc2c1 | 1.2 | -19 | -1 | -2 | 6%

3 consecutive entries out of the list so far, for reference:
SMILES | RecA intein inh | YopH PTP inh | Arbovirus inh | Mtb betalactam | Mtb growth | others
CCCNC(=O)c1ccc(COc2ccc(C)cc2)o1 | -2.0 | / | / | -14 | /
CC(CN1CCCCC1)OC(=O)c1ccco1 (stereo not given) | -0.4 | / | / | -1 | /
CC(C)c1ccccc1NC(=O)COc1ccc2c(=O)c(Oc3ccc4ccccc4c3)coc2c1 | 1.2 | -19 | -1 | -2 | 6%

(next part)
SMILES | RecA intein inh | YopH PTP inh | Arbovirus inh | Mtb betalactam | Mtb growth | others
S=c1[nH]nc(-c2ccco2)n1/N=C/c1cccc(Cl)c1 | 0.3 | / | / | -3 | 3%
O=C(NCc1cccs1)C1CCCN(S(=O)(=O)c2ccc(Br)s2)C1 (stereo not given) | -0.3 | -1 | -6 | 1 | 1%
CC(=O)Nc1c(O)c2ccccc2[nH]c1=O | -3.9 | / | 10 | 1 | -2%
O=C(NNc1ccccc1[N+](=O)[O-])Nc1ccc(F)cc1 | 1.6 | -15 | 5 | -7 | -3%
Fc1ccc(N=C2NN=C(c3cc(F)ccc3F)CS2)cc1 | / | -18 | -14 | -3 | 10%
COC(=O)c1sc(SC)c(-c2ccon2)c1C | / | / | / | 6 | -5%
COc1c(F)c(F)c(C(=O)O)c(Nc2ccccc2C)c1F | -0.9 | -40 | 7 | -1 | /
N#Cc1ccc(N/N=C/c2cn(-c3ccccc3)nc2-c2ccccc2)c([N+](=O)[O-])c1 | -3.6 | -30 | -30 | 24 | -3%
Fc1ccc(-c2csc(-c3ccncc3)n2)cc1 | 0.4 | / | 6 | -5 | 5%
CC(C)CC(=O)N=C1SC2CS(=O)(=O)CC2N1Cc1ccccc1Cl (stereo not given) | -0.7 | / | / | -5 | -16%
COc1cccc(C2CCCCN(C)C2=O)c1 (stereo not given) | 1.8 | / | / | 5 | -6%
CC(/C=C/c1ccco1)=N/NC(=O)c1ccccc1Cl | 3.9 | -29 | -5 | 10 | -3%
Cc1cc(/C=N/NC(=O)CC2(C)OCCO2)c(C)n1-c1ccc(Cl)c(Cl)c1 | 14 | -25 | -3 | 40 | 4%
CCn1nnc(NC(=O)c2cccnc2)n1 | -1.1 | 1 | 0 | -14 | 3%
O=C(NCCc1ccc(S(=O)(=O)N2CCCC2)cc1)c1cccs1 | 3.8 | -48 | 5 | -12 | -7% | Arbovirus inh repeat=1
CCCCC(c1nnnn1C1CCCC1)N1CCN(C2CCCC2)CC1 (stereo not given) | -2.5 | -30 | 8 | -1 | -9%
CC(Sc1nc(N)cc(=O)[nH]1)C(=O)Nc1cccc(Cl)c1 (stereo not given) | -3.9 | -37 | 0 | -4 | 1%
Cc1ccccc1CS(=O)(=O)c1ccc(C(=O)N2CCOCC2)cc1[N+](=O)[O-] | 1.0 | / | / | -2 | /
COC(=O)c1ccc(NC(=O)CSCc2ccccc2C)cc1 | 1.9 | -24 | 9 | 40 | 2%
COC(=O)c1ccc(OCC(O)CN(CC(C)C)CC(C)C)cc1 (stereo not given) | -1.9 | -21 | 10 | 14 | 14% | Arbovirus inh repeat=-2
O=C1C(=O)N(CCN2CCOCC2)C(c2ccccc2)/C1=C(\O)c1ccc2c(c1)OCCO2 (stereo not given) | 0.5 | / | / | -11 | /
COc1ccc(OC)c2sc(N(CCN(C)C)C(=O)/C=C/c3cccs3)nc12 | -2.7 | / | / | 85 | /
CCOc1ccc2nc(N(CCCN(C)C)C(=O)c3ccc4c(c3)CCCC4)sc2c1 | 0.1 | / | / | 61 | /
COC(=O)C1=C(C)N(CCc2c[nH]c3ccc(OC)cc23)C(=O)C1 | -1.4 | / | 5 | -3 | 6%
O=C(CSc1ncn(-c2ccccc2)n1)Nc1ccc2c(c1)OCCO2 | 1.0 | -22 | 2 | 1 | 2%
O=C(NCC1CC1)Nc1cccc(Cl)c1 | 1.4 | / | / | -3 | /
NC(=O)C1(N2CCCCC2)CCN(C(=S)Nc2cccc(Cl)c2)CC1 | 0.0 | -1 | 15 | 3 | 0%
O=C1CCC([N+](=O)[O-])C(c2cccc(Br)c2)N1 (stereo not given) | -1.3 | -27 | -2 | -1 | -11%
Brc1ccc(C=Nc2ccc3c(c2)OCCOCCOCCO3)s1 | -0.8 | -19 | -2 | 3 | 10%
COc1ccc(NC(=O)CN2CCN(CC(=O)Nc3ccccc3F)CC2)c(OC)c1 | 0.4 | -49 | 1 | 2 | -22%
Cc1csc(CN(C)C(=O)CC2C(=O)NCCN2Cc2ccc(F)c(F)c2)n1 (stereo not given) | -2.0 | / | / | 3 | /
CCN(CC)CCN(CC)Cc1ccccc1Br | -1.1 | -38 | 0 | -10 | -4%
C/C(=N\NC(=O)C(=O)Nc1cc(C)ccc1C)c1ccncc1 | -0.2 | / | / | -7 | 6%
COC(=O)c1c(NC(=O)c2ccn(C)n2)sc2c1CCC2 | -0.9 | / | / | -10 | /
CC(C)(C)N1CC(C(=O)Nc2ccc(S(N)(=O)=O)cc2)CC1=O (stereo not given) | -4.8 | / | / | 6 | /
C=CCNC(=O)CCCCC(=O)NCC=C | -3.1 | 8 | 2 | 0 | -9%
CCOc1ccc(Nc2oc(Cc3ccccc3)nc2C#N)cc1 | 2.5 | -13 | 0 | 56 | 4%
COc1cc2oc3ccccc3c(=O)c2cc1OC | -1.8 | / | / | -14 | /
CC(=O)N1c2ccc(S(=O)(=O)NCC3CCC(C(=O)NCc4ccco4)CC3)cc2CC1C (stereo not given) | -0.1 | / | / | 0 | /
Cc1ccc(-c2n[nH]c(=S)n2/N=C/C=C/c2ccccc2[N+](=O)[O-])cc1 | -0.2 | -10 | 8 | -1 | 13%
CC(C)C(=O)Nc1ccc(-c2nnc(-c3ccccc3)o2)cc1 | -0.8 | / | / | 5 | /
CCOC(=O)Cn1nc2sc3ccccc3n2c(=O)c1=O | -3.3 | / | / | -4 | -14%
COc1cccc(NC(=S)N(CCc2c(C)[nH]c3ccc(C)cc23)Cc2cccs2)c1 | 8.7 | -26 | -18 | -5 | /
